# High-throughput results deposited in PubChem BioAssay by National Center for Advancing Translational Sciences (NCATS).
# AmpC nodet inh – blocks E. coli AmpC beta-lactamase in absence of detergent; AmpC nitrocefin hydrolysis, absorbance 480 nm, no detergent; potencies from a single point are estimates; Potency, µM (doses to about 28.7 µM), without a hit: at the top dose activity change, negative = inhibition; 1.8% of 71,000 active; active = falling curve, for most hits resting on a single point; inconclusive = weak or doubtful change; inactive = flat or rising curve; note: % of control where 0% means no effect; about half of the hits show no inhibition at the top dose; a quarter of the inactives give rising signals
# Target sequence (P00811 whole entry, looked up): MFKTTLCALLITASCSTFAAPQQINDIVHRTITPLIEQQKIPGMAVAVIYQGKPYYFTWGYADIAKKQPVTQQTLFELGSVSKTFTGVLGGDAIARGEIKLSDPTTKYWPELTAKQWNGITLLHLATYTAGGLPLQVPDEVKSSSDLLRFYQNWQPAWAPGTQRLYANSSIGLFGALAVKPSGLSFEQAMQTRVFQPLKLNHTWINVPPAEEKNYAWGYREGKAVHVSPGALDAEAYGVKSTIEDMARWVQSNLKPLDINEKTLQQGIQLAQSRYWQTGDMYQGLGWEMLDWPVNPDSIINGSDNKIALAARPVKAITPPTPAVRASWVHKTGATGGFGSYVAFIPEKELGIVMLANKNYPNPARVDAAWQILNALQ
#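 AmpC in 20 mM phosphate buffer pH 7.0 was preincubated 15 min at room temperature with compounds. Nitrocefin (800 uM stock) was then added and hydrolysis followed at 480 nm every 20 s for 4 min.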
# * hit, by the source's call; [ ] = remark or other dose. Potency is the fitted concentration of half-maximal effect. These rows are one share of the data; the hit share may differ from the screen's.
SMILES,AmpC nodet inh
COc1ccc(-c2ccc(-c3nnc(-c4cc(OC)ccc4OC)o3)cc2)cc1,19%
CC(C)N(C(=O)CSc1nnc(NC(=O)C2CCC2)s1)C(C)C,10%
Cc1c(NC(=O)COC(=O)c2cc3c4ccccc4n(C)c3s2)c(=O)n(-c2ccccc2)n1C,102%
Cc1cc(-n2c(C)cc(C(=O)CN3C(=O)NC4(CCCC4)C3=O)c2C)no1,21%
O=C(NCCCn1ccnc1)c1cc(S(=O)(=O)N2CCOCC2)c(Cl)cc1Cl,22%
CCC(=O)N1CCc2cc(Br)cc(S(=O)(=O)NCC3CCCN3CC)c21 (stereo not drawn),4%
CCCCc1nc2ccccc2c(=O)n1NC(=O)c1c(O)c2cccc3c2n(c1=O)CC3,16%
O=c1c(-c2cccc(Cl)c2)nc2cncnc2n1-c1ccccc1,23%
C=CCn1c(SCC(=O)Nc2cccc(C(=O)OC)c2)nnc1C(C)NC(=O)c1cccs1 (stereo not drawn),61%
Cc1ccc(S(=O)(=O)N2CCC(C(=O)N3Cc4ccccc4C3)CC2)cc1,24%
CCCc1nc2oc(C(=O)OCC)c(N)c2c2c1COC(C)(C)C2,43%
CCn1cc(CNC(=O)c2cc(Cl)ccc2OC)c(C)n1,21%
O=S(=O)(O)F,-14%
COC(=O)C1=C(C)NC2=C(C(=O)CC(C)(C)C2)C1c1cccc(C)n1 (stereo not drawn),0%
CC(C(=O)NCc1cccnc1)N1C(=O)c2ccccc2C1=O (stereo not drawn),-7%
O=C(NCc1ccco1)C(c1ccccc1)N(Cc1cccnc1)C(=O)Cn1nnc2ccccc21 (stereo not drawn),15%
COc1cccc(-c2cncnc2NCCN2CCOCC2)c1,4%
CN1CCN(S(=O)(=O)c2ccc(N(C)CC(=O)Nc3ccc(F)cc3)nc2)CC1,6%
CC1CCN(C(=O)CN2C(=O)C(C)(C)Oc3ccc(C(=O)NC4CCCC4)cc32)CC1,64%
CCCCN1CSC(=S)N(Cc2ccccc2)C1,-1%[5.75 µM]
N#Cc1cn(-c2ccccc2)nc1-c1ccc2c(c1)OCCO2,3%
CCCCn1nc(C(=O)NC2=NCCS2)c2ccccc2c1=O,17%
CCCn1nnnc1SCC(=O)NCc1ccc(OC)cc1,0%
CCc1ccc(NC(=O)N(C2CCC(C)CC2)C2CCN(C(C)=O)CC2)cc1 (stereo not drawn),107%
CN(CC(=O)N1CCc2ccccc21)S(=O)(=O)c1ccc(Br)s1,4%

# The results go on.
SMILES,AmpC nodet inh
O=c1[nH]c2ccsc2c(=O)n1-c1ccc(F)c(Cl)c1,3%
COc1ccccc1CNc1ncnc2ccc(-c3ccoc3)cc12,11%
COC(=O)c1[nH]c2cccc(OC)c2c1NC(=O)CCN1CCC(C)CC1,4%
CC(=O)N1CCC2(CC1)CN(Cc1cc(C(F)(F)F)cc(C(F)(F)F)c1)C2,-12%
O=C(c1ccco1)N1CCN(c2ncnc3c2cnn3-c2ccccc2)CC1,-1%
Nc1ccc([N+](=O)[O-])cc1,-13%
COC(=O)CN(c1ccccc1)S(=O)(=O)c1ccccc1,8%
CCNC(=O)[C@@H]1O[C@@H](n2cnc3c(N)nc(NCCc4ccc(CCC(=O)O)cc4)nc32)[C@H](O)[C@@H]1O,2%
CC(Cc1cccs1)NC(=O)NC1CCCCC1 (stereo not drawn),-3%
CCN(C(=O)COc1ncnc2scc(-c3ccc(F)cc3)c12)C1CCS(=O)(=O)C1 (stereo not drawn),56%
CCc1ncc(C(=O)c2ccc(OC)cc2)n1C,11%
Cn1c(=O)c2c(nc(N3CCCCC3)n2CCSc2nc3ccccc3o2)n(C)c1=O,57%
O=C(CC1(O)C(=O)Nc2cc(Cl)cc(Cl)c21)c1ccncc1 (stereo not drawn),23%
CC12C=CC3(O1)C(C(=O)N(c1cccnc1)C3C(=O)NC1CCCCC1)C2C(=O)Nc1ccccc1 (stereo not drawn),-6%
COc1ccc(-c2nc3cnc(Nc4cccc(OC)c4)nc3n(Cc3cccs3)c2=O)cc1,4%
O=C(O)C[C@H]1OCC=C2CN3CC[C@@]45C6=CC(=O)C(=O)C([N+](=O)[O-])=C6N[C@H]4[C@H]1[C@H]2C[C@@H]35,-1%[5.75 µM]
O=S(=O)(c1cccc(-c2nnc(SCc3nc4ccccc4s3)o2)c1)N1CCOCC1,88%
O=C(CN(CC1CCCO1)C(=O)CNS(=O)(=O)c1ccccc1)NCc1ccccc1 (stereo not drawn),17%
COc1ccc(C)cc1S(=O)(=O)Nc1ccc(F)c(Cl)c1,0%
Cn1c(=O)[nH]c(=O)c2c1nc(N1CCN(Cc3ccccc3)CC1)n2CCCc1ccccc1,103%
COc1cccc(-n2c(COc3ccc(C)cc3)nnc2SCC(=O)O)c1,13%
Nc1nc(SCC(=O)N2CCCc3ccccc32)n(-c2ccccc2)n1,21%
CCOC(=O)C1=C(C)NC(C)=C(C(=O)OCC)C1C(=O)OCC(=O)N1CCC(C)CC1,90%
O=C(O)c1cccc(C(=O)Nc2cccc(NC(=O)C3CCCO3)c2)c1 (stereo not drawn),-6%
COc1ccccc1-c1cncnc1NCCc1cnc[nH]1,-11%

# 2 successive records out of the list so far:
SMILES,AmpC nodet inh
COc1cccc(-n2c(COc3ccc(C)cc3)nnc2SCC(=O)O)c1,13%
Nc1nc(SCC(=O)N2CCCc3ccccc32)n(-c2ccccc2)n1,21%

# Some of the entries above, reformatted.
Molecule	AmpC nodet inh
O=c1[nH]c2ccsc2c(=O)n1-c1ccc(F)c(Cl)c1	3%
COc1ccccc1CNc1ncnc2ccc(-c3ccoc3)cc12	11%
COC(=O)c1[nH]c2cccc(OC)c2c1NC(=O)CCN1CCC(C)CC1	4%
CC(=O)N1CCC2(CC1)CN(Cc1cc(C(F)(F)F)cc(C(F)(F)F)c1)C2	-12%
O=C(c1ccco1)N1CCN(c2ncnc3c2cnn3-c2ccccc2)CC1	-1%
Nc1ccc([N+](=O)[O-])cc1	-13%
COC(=O)CN(c1ccccc1)S(=O)(=O)c1ccccc1	8%
CCNC(=O)[C@@H]1O[C@@H](n2cnc3c(N)nc(NCCc4ccc(CCC(=O)O)cc4)nc32)[C@H](O)[C@@H]1O	2%
CC(Cc1cccs1)NC(=O)NC1CCCCC1 (stereo not drawn)	-3%
CCN(C(=O)COc1ncnc2scc(-c3ccc(F)cc3)c12)C1CCS(=O)(=O)C1 (stereo not drawn)	56%
CCc1ncc(C(=O)c2ccc(OC)cc2)n1C	11%
Cn1c(=O)c2c(nc(N3CCCCC3)n2CCSc2nc3ccccc3o2)n(C)c1=O	57%
O=C(CC1(O)C(=O)Nc2cc(Cl)cc(Cl)c21)c1ccncc1 (stereo not drawn)	23%
CC12C=CC3(O1)C(C(=O)N(c1cccnc1)C3C(=O)NC1CCCCC1)C2C(=O)Nc1ccccc1 (stereo not drawn)	-6%
COc1ccc(-c2nc3cnc(Nc4cccc(OC)c4)nc3n(Cc3cccs3)c2=O)cc1	4%
O=C(O)C[C@H]1OCC=C2CN3CC[C@@]45C6=CC(=O)C(=O)C([N+](=O)[O-])=C6N[C@H]4[C@H]1[C@H]2C[C@@H]35	-1%[5.75 µM]
O=S(=O)(c1cccc(-c2nnc(SCc3nc4ccccc4s3)o2)c1)N1CCOCC1	88%
O=C(CN(CC1CCCO1)C(=O)CNS(=O)(=O)c1ccccc1)NCc1ccccc1 (stereo not drawn)	17%

# Carrying on:
SMILES,AmpC nodet inh
Cc1ccc(C(=O)Nc2nc3ccccc3n2CCN2CCCC2)cc1,9%
COc1ccc(Oc2ncc3nc(-c4cccs4)c(=O)n(-c4ccccc4)c3n2)cc1,-11%
Cc1c(NC(=O)c2cc(=O)[nH]c(=O)[nH]2)c(=O)n(-c2ccccc2)n1C,-17%
CC(C)(C)n1ncc2c(=O)n(Cc3c(F)cccc3Cl)cnc21,12%
O=C(NCCO)c1ccc(Cl)cc1,-3%[5.75 µM]
COc1ccc(OCC(=O)Nc2cccc(-c3nc4ccccc4o3)c2)cc1,12%
Cc1cccc(OCCCCCNCCO)c1,14%
COC(=O)[C@H](C)[C@@H]1C[C@@]1(C)[C@@H](NC(=O)OCc1ccccc1)c1ccccc1,17%
O=C(Cn1cnc2c(oc3ccccc32)c1=O)NCC1CCCO1 (stereo not drawn),-2%
Cc1cnc(CNc2ncncc2-c2ccc(N(C)C)cc2)cn1,28%
COc1ccc(NC(=O)CC2Oc3ccc(C)cc3NC2=O)cc1 (stereo not drawn),4µM*[single pt active]
COc1ccc(OC)c(C(=O)C2COC(=O)C2)c1 (stereo not drawn),4%
COCCn1cnc2c(c1=O)c1nc3ccccc3nc1n2/N=C/c1cccc(OC)c1OC,135%
Cc1ccc(N2OC3C(=O)NC(=O)C3C2c2ccco2)cc1 (stereo not drawn),6%
O=C(Nc1nnc(N2CCCCCC2)s1)c1cc(-c2ccc(Br)cc2)on1,4µM*[single pt active]
COc1cccc(NC(=O)c2cccc(OC)c2OC)c1,0%
COC(=O)c1ccc(CSc2nnnn2C)o1,-5%
Cn1c(CCNC(=O)c2ccc(F)cc2)nc2ccccc21,-2%
N#CCCn1c(=O)c(-c2cccs2)nc2cnc(OCc3ccccc3)nc21,-3%
CCCCN=c1sc(C(=O)OC)cc(=O)n1CCCC,2%
CCOc1cc(S(=O)(=O)NCc2ccc3c(c2)OCO3)c(C)cc1C,-10%
CCOC(=O)CSc1ncnc2c1cnn2-c1ccc(Cl)cc1,-2%
COC(=O)c1ccc(C2c3c(oc4ccccc4c3=O)C(=O)N2CCCN2CCOCC2)cc1 (stereo not drawn),87%
CCOc1ccc(Cn2nnc(C(=O)NCCc3ccccc3)c2N)cc1,4µM*[single pt active]
O=C(COC(=O)c1ccc(N2CCCC2=O)cc1)NCc1ccco1,12%

# Later entries:
SMILES,AmpC nodet inh
Cc1ccc2[nH]c(=O)c3cc(C(=O)NCCN4CCN(C)CC4)sc3c2c1,11%
COc1ccc(OC)c(S(=O)(=O)NCc2ccccc2)c1,12%
CC(C)CCn1c(SCc2ccc(Cl)cc2)nc2c1c(=O)[nH]c(=O)n2C,11%
CCSC1(SCC)N=C(N)C2(C#N)C(c3ccccc3)NC3=C(CCC3)C12C#N (stereo not drawn),8%
COC(=O)CSc1nc2sc3c(c2c(=O)n1-c1ccccc1)CCN(C)C3,60%
CCOc1ncccc1C(=O)Nc1ccccc1C(=O)NCc1ccc2c(c1)OCO2,-6%
O=C(Nc1c(C(=O)O)oc2ccc(Br)cc12)c1ccccc1,10%
Cc1ccc(-n2ncc3c(=O)n(CC(=O)OCc4ccccc4)cnc32)cc1,-16%
CCCCS/C(=C(/C#N)C(N)=O)c1cc2c([nH]1)CCCC2,13%
CC1CCN(CC[C@@H]2CCCN2S(=O)(=O)c2cccc(O)c2)CC1,-1%
COc1ccccc1N1CCN(Cc2ccc(Br)s2)CC1,33%
COCCNc1cc(-c2c(C)noc2C)ncn1,3%
CCOC(=O)c1sc(NC(=O)C2CC2)cc1C,-10%
CCN1CCN(C(CNC(=O)c2ccc3c(c2)OCO3)c2cccnc2)CC1 (stereo not drawn),4%
COc1ccccc1NC(=O)CSc1nnc(CNC(=O)c2ccco2)o1,3%
COc1ccccc1-c1cc(C(=O)N2CCCCC2)no1,41%
O=C(CCN1CCOCC1)Nc1cccc(Br)c1,4%
CCOC(=O)c1cc(-c2cccnc2)nn1-c1ccccn1,-2%
O=C(COc1ccc(Br)cc1CO)Nc1ccccc1F,-4%
Cc1nnc(SCC(=O)N2CC(=O)Nc3ccccc32)n1-c1ccccc1,9%
CCC(O)CNc1nc(SC)nc2sc3c(c12)CCN(C)C3 (stereo not drawn),-16%
Cc1cccc(C)c1N,5%
O=C(c1cc(-c2ccccc2)on1)N1CCCC1,41%
CC1(CC(=O)O)C(=O)N=C2C=CC=CN21 (stereo not drawn),-6%
O=C(CCC1CCCC1)N1CCN(S(=O)(=O)Cc2ccccc2)CC1,27%

# Continued.
SMILES,AmpC nodet inh
Cc1ccc(-c2nnn(CC(=O)N(c3cccc(O)c3)C(C(=O)NC(C)(C)C)c3cccs3)n2)o1 (stereo not drawn),36%
CN(C)CC(C(=O)c1ccccc1)c1ccccc1 (stereo not drawn),-19%
CCCCn1c(CN2CCOCC2)nc2c1c(=O)n(C)c(=O)n2C,-21%
O=C(NCCCN1CCOCC1)c1cc(-c2ccccc2)on1,4%
N#CC1=C2SCN(c3ccccc3)CN2C(=O)CC1c1cccs1 (stereo not drawn),-6%
COC(=O)c1cn(NC(=O)c2cccc(N(C)C)c2)c(=O)c2ccccc12,1%
Cc1cccc(O)c1C,-9%
Nc1[nH]nc2nc(N3CCOCC3)nc(-c3ccccc3)c12,7%
O=S(=O)(c1ccccc1)N1CCC2(CCCN(Cc3ccccc3)C2)CC1,15%
c1ccc(-c2ccc(-c3ccccn3)nn2)nc1,2%
COc1ccc(NC(=O)c2cc(=O)c3ccccc3o2)cn1,4%
CCCc1[nH]nc2c1C(c1cc(OC)ccc1F)C(C#N)=C(N)O2 (stereo not drawn),3%
Brc1cccc(-c2nnco2)c1,1%
COc1cc(C2C(C#N)=C(N)Oc3c2oc(CO)cc3=O)cc(OC)c1OC (stereo not drawn),-9%
CCOc1cc(N2CCOCC2)c(OCC)cc1NC(=O)c1ccc(=O)n(Cc2ccccc2)n1,81%
CCOCCc1nnc(NC(=O)COC)s1,-10%
CC(C)CC(C(=O)Nc1ccc2c(c1)OCCO2)N1C(=O)c2ccccc2C1=O (stereo not drawn),22%
CCOC(=O)N1CCN(c2c(N3CCN(c4ccccc4OC)CC3)c(=O)c2=O)CC1,94%
COC(=O)c1cc(-c2c(C)oc3cc(OC(C)C)ccc3c2=O)c(C)o1,81%
CCOc1ccc(OCCN2C(=O)NC3(CCCc4ccccc43)C2=O)cc1 (stereo not drawn),28%
c1nc(NCC2CCCO2)c2[nH]cnc2n1 (stereo not drawn),-3%
CS(=O)(=O)N(Cc1cc2ccccc2[nH]c1=O)C1CCCCC1,10%
O=C(CN1C(=O)CC(c2ccccc2)=Nc2ccccc21)NCc1ccco1,-3%
Cc1ccc(C)c(/C(=N\N=C(N)N)C2CC2)c1,-6%[5.75 µM]
CCC(=O)NCCn1c(C)cc2ccccc21,20%
COCC(=O)Nc1ccc(C)c(Cl)c1,4%
